Screens as filed in PubChem BioAssay.
TRPV1 potentiator – HTS Assay for Compounds that Act as Potentiators of the Vanilloid Receptor 1; Transient receptor potential cation channel subfamily V member 1 (Homo sapiens), Q8NER1; TRPV1-expressing cells, Fluo-8 calcium influx, capsaicin EC20 potentiation; host cell line not named in the record; control for the full effect not named in the record; potentiation, % at 8.33 µM; 320,000 compounds, 0.02% hits; AID 540277, 2011; active means potentiation above 80%; inconclusive means 30% to 80%; inactive means below 30%; note: 0% is about no effect
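TRPV1-expressing cells were cultured overnight at 35.5C and loaded with Fluo-8 calcium dye for 40 to 90 min at room temperature. After a 10 s baseline, compound was added and calcium influx was read kinetically for 3 min (ex 480/em 520 nm).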
TRPML1 inh – qHTS for Inhibitors of the Human Mucolipin Transient Receptor Potential 1 (TRPML1). 390,000 compounds, 0.02% hits. TRPML1-inducible cells, Ca2+ dye fluorescence, FDSS; stronger effect = lower value; inhibition of EC80 agonist-evoked calcium signal. Mucolipin-1 (Homo sapiens), Q9GZU1. AID 624415, 2012. activity change, negative = inhibition, % (test concentration not listed); in the data active means activity change below about -50%; inconclusive means about -30% to -50%; inactive means above about -30%;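 note: stimulus is agonist 54-4 at its EC80 concentration; % is set by controls: 0 for no effect and ±100 for the full control effect; compound concentration not given in the record; the text of the record puts the active cut at -80%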
Target sequence (Q9GZU1 whole entry, looked up): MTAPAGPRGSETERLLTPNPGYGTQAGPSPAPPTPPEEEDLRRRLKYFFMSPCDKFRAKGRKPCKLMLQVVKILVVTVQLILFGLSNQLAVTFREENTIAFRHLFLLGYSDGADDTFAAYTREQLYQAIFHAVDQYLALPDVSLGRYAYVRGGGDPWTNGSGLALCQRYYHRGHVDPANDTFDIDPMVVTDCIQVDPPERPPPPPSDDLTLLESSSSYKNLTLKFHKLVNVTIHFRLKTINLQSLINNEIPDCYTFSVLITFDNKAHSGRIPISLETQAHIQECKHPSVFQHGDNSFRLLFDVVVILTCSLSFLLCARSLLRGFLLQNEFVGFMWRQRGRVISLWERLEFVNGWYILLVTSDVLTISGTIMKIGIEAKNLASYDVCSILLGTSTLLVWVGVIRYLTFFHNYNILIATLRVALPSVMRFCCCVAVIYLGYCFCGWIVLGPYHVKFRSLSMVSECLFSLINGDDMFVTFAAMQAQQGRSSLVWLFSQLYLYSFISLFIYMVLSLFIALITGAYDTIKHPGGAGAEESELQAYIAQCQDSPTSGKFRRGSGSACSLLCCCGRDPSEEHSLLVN
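Calcium fluorescence in TRPML1-DL cells induced overnight with Tet: a 110 s read after compound pin addition, then a 110 s antagonist read after challenge with 54-4 at 4 uM final (EC80).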
Sfp PPTase inh – qHTS Assay for Inhibitors of Bacillus subtilis Sfp phosphopantetheinyl transferase (PPTase) | Potency, µM, for inactives: max response, negative = inhibition, most hits filed as inhibitors | Biochemical Sfp PPTase activity, qHTS | AID 1490, 2009 | 310,000 compounds, 3.5% hits; active = well fitted inhibition curve with a large enough effect; inconclusive = small, poorly fitted or top-dose-only effect, or another doubt; inactive = no such curve, though single readings can be large or run the other way;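 note: the enzyme is Sfp with the accession as filed and its product quenches rhodamine fluorescence; potency is the fitted concentration of half-maximal effect; 0% = enzyme reaction without inhibitor and -100% = no enzyme wells; top concentration of the series not given in the record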
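After 15 min at room temperature with compound, 15 nM Sfp received 5 uM rhodamine-CoA plus 12.5 uM BHQ-2-ybbR (50 mM Hepes pH 7.6, 10 mM MgCl2). Rate came from the fluorescence difference over 30 min, ex 525/em 598 nm.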
Menin-MLL FL inh – qHTS Assay for Inhibitors Targeting the Menin-MLL Interaction in MLL Related Leukemias: Competition With Fluorescein Labeled MLL-derived Peptide | AID 1766, 2009 | 290,000 tested, under 10 active | FP activity change, % at 61.4 µM | Fluorescence polarization, fluorescein-MLL peptide displacement from menin; inconclusive = falling polarisation curve, or a change in total fluorescence; inactive = total fluorescence flat and polarisation flat or rising; no compound was filed as active; the % refers to the polarisation; negative = inhibition;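 note: % of control where 0% means no effect; inhibitors lower the polarisation; unlabelled MLL peptide was the positive control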
PINK1 expr mod – A Quantitative High throughput Screen to Identify Chemical Modulators of PINK1 Expression. PINK1 immunofluorescence, high-content cytometry, 24 h. Potency, µM (series often up to 76.6 µM), inactives show at the highest dose activation (PINK1 increase), usual class: activators. 410,000 compounds, 0.2% hits; active = well fitted activation curve with a large enough effect; inconclusive = small, poorly fitted or top-dose-only effect; inactive = flat fitted curve, though single readings scatter; cell line not stated here;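 note: potency is the fitted concentration of half-maximal effect; % of control where 0% means no effect; nearly all actives have a fitted effect of over 65% in size; a mitochondrial uncoupler was the plate control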
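Cells are seeded, rested 12 hours, then given compound at five concentrations or DMSO for 24 hours. After fixation, blocking and antibody staining, PINK1 amount and mitochondrial localization are scored; CCCP serves as control.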
TRPML1 ag – qHTS for Agonists of the Human Mucolipin Transient Receptor Potential 1 (TRPML1); 410,000 compounds, 0.12% hits; activation, % (concentration not given with the values); Mucolipin-1 (Homo sapiens), Q9GZU1; TRPML1-expressing cells, Ca2+ dye fluorescence, FDSS; host cell line not named in the record; reference of the full effect not given here; AID 624414, 2012; in the data active = activation above about 50%; inconclusive = about 30% to 50%; inactive = below about 30%; note: 0% is about no effect; the text of the record puts the active cut at 80%
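TRPML1-DL cells, Tet-induced overnight (~16 h, 37 degrees C), loaded 45-90 min at room temperature with Ca8 no-wash calcium dye plus quencher. FDSS fluorescence: 10 s baseline, compound pin-transfer, 110 s agonist read, then EC80 54-4 (4uM final) and 110 s antagonist read.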
ClpP mod – qHTS Assay for Activators of ClpP | ATP-dependent Clp protease proteolytic subunit (Bacillus subtilis (strain 168)), P80244 | purified B. subtilis ClpP, FRET peptide cleavage, 20 min | Potency, µM (series often up to 57.5 µM), for the others: at the top dose activity change, negative = active | 340,000 compounds, 1.9% hits; active = well fitted falling curve with a large enough effect; inconclusive = small, poorly fitted or top-dose-only effect; inactive = no such curve, though single readings can be large or run the other way; note: potency is the fitted concentration of half-maximal effect; the source files actives as falling curves though it sought activators and does not explain the sign; nearly all actives have a fitted effect of over 65% in size; many hits overshoot -100%
Target sequence (P80244 whole entry, looked up): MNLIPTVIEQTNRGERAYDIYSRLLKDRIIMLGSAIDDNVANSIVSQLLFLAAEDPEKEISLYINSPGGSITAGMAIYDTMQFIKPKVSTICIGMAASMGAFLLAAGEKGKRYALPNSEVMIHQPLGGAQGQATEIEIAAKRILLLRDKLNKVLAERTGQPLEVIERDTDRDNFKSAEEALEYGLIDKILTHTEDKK
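FRET quenching reversal measured ClpP activation: 10 microg/mL B. subtilis ClpP at pH 8 with the FRET-FV decapeptide, read at 430 nm after 320 nm excitation. The 20-min minus 0-min signal was scaled between DMSO/no-enzyme wells and ADEP (5.8 microM final).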
* marks the source's active call; other numbers are inactive results; u = inconclusive; x = not tested or not shown; & = joins results of further samples.

SMILES	TRPV1 potentiator	TRPML1 inh	Sfp PPTase inh	Menin-MLL FL inh	PINK1 expr mod	TRPML1 ag	ClpP mod
CS(=O)(=O)N(CC(=O)N1CCN(Cc2ccc3c(c2)OCO3)CC1)C1CCCCC1	4	13	8%	1.3	0.7%	-0.4	-3.4%
Cc1ccc(S(=O)(=O)Cn2nnnc2C(CC(C)C)N2CCC(C(N)=O)CC2)cc1 (stereo not given)	3	19	4%	-5.9	1.8%	0.8	0.7%
Cc1nnc(Cl)c2nn(-c3ccccc3F)c(C)c12	u	-5	8%	20	0.8%	1.2	28µM*
COc1cc2c(cc1OC)[C@@H](NC(=O)C(C)C)[C@H](OCc1ccccc1)C2	x	20	x	x	-0.1%	-1.2	3.4%
CC(C)c1ccc(N(C(=O)c2ccco2)C(C(=O)NC2CCCC2)c2cccnc2)cc1 (stereo not given)	-9	4	17%	4.7	5.0%	3.3	x
Cc1c(C(=O)Nc2ccc(-c3nnc4n3CCCCC4)cc2)oc2c1ccc1ccccc12	-1	-8	u	3.0	4.2%	1.4	0.6%
NC1=NN(c2ccccc2)C(=O)C1	x	-6	x	x	-1.6%	0.0	x
CCOc1ccc(NC(=O)CC(Cc2ccc(Cl)cc2)C(=O)O)cc1 (stereo not given)	7	10	15%	5.2	1.1%	-1.0	-4.7%
COCCN(C(=O)Nc1ccc(F)cc1F)c1nc2ccccc2s1	-7	-7	-4%	-2.2	0.1%	-0.7	x
O=C(CSc1ncccn1)N1CCN(C(c2ccccc2)c2ccccc2)CC1	-15	-5	-1%	-0.2	-1.9%	-0.7	-1.7%
CCC(=O)Nc1ccc2nc(SCCOc3cccc(C)c3)sc2c1	x	-8	x	x	1.3%	1.3	-4.4%
CN(C)C=Nc1ccccc1C1C=NNC1=O (stereo not given)	-6	x	18µM*	8.9	x	x	x
CCS(=O)(=O)NCC(c1ccco1)N1CCN(c2ccc(F)cc2)CC1 (stereo not given)	-4	-18&-7	11%	3.4	0.9%&0.2%	1.6&-0.6	-6.1%&-1.5%
NC1=NC[C@H](Cc2ccc(O)cc2)N1CCc1cccc(F)c1	-30	4	8%	-4.2	-0.6%	-0.1	-1.9%
COc1ccc(C(=O)NCCCn2nc(C)cc2C)cc1S(=O)(=O)N1CCOCC1	5	33	x	x	0.4%	0.0	-7.9%
COc1ccccc1Cn1c(CO)nc2ccccc21	9	35	-5%	0.8	-0.5%	-0.1	0.2%
O=C(c1cccc(F)c1)N1CCN(C(=O)c2nn3cccnc3c2Cl)CC1	-2	-5	7%	9.4	-1.3%	-0.4	-1.4%
O=C(Cc1ccccc1)n1nc(-c2ccccc2)nc1NCc1ccco1	x	-3	0%	-0.3	0.9%	-0.2	-18%
Cc1ccc(C(C[N+](=O)[O-])n2nc(C)cc2C)cc1 (stereo not given)	11	9	-26%	-0.1	-0.9%	1.3	4.6%
Cc1ccc(S(=O)(=O)N2CCOC2CNC(=O)C(=O)NCCc2ccc(S(N)(=O)=O)cc2)cc1 (stereo not given)	-5	6	28%	0.3	-0.5%	0.8	x
CC(C)(C)NC(=O)COc1coc(CN2CCN(C(=O)c3ccco3)CC2)cc1=O	2	6	x	x	-0.7%	0.6	1.8%
Cc1ccc(S(=O)(=O)N2CCC(C(=O)N3CCCC3C(=O)N[C@@H](CC(C)C)C(=O)NCC(N)=O)CC2)cc1 (stereo not given in full)	14	x	-3%	-2.4	-0.1%	x	-1.6%
CN(C1CCCCC1)S(=O)(=O)c1ccc2c(c1)c(=O)c(C(=O)O)cn2C	x	-16	x	x	1.1%	-0.8	0.9%
CCn1c(-c2cccnc2Cl)nc2cc(C)c(C)cc21	-19	-21	-12%	2.5	2.4%	1.6	x
COc1cccc(-c2cc(C(=O)NCC3CCCO3)c3cc(C)cc(C)c3n2)c1 (stereo not given)	-5	15	6%	-1.7	u	3.6	u

Shown as a hit in Sfp PPTase inh, of those listed so far:
| mol | TRPML1 inh | Sfp PPTase inh | Menin-MLL FL inh |
| --- | --- | --- | --- |
| CN(C)C=Nc1ccccc1C1C=NNC1=O (stereo not given) | x | 18µM* | 8.9 |

Next section:
SMILES	TRPV1 potentiator	TRPML1 inh	Sfp PPTase inh	Menin-MLL FL inh	PINK1 expr mod	TRPML1 ag	ClpP mod
COc1ccccc1N1CCN(c2nc(-c3ccc(C)cc3)nc3ccccc23)CC1	x	-4	x	x	3.6%	0.1	0.2%
Cc1cc(CNC(=O)COc2ccc(C#N)cc2)c2ccccc2n1	-10	-7	16%	0.7	0.2%	0.8	x
CC(=O)c1ccc(N2CCN(c3ccc(NC(=O)c4cccs4)cc3C(=O)O)CC2)cc1	x	4	x	x	0.1%	-0.3	-0.4%
Cc1ccccc1N=C1C(=O)Nc2ccccc21	x	-9	x	x	3.4%	-0.2	0.2%
CCOc1ccc(-n2c(Cc3cc(=O)[nH]c(=O)[nH]3)nnc2SCC(=O)NC2CCCC2)cc1	x	15	17%	0.9	-3.2%	0.0	-9.1%
CCOC(=O)C(=CNCC(=O)OC)C(=O)OCC	6	16	-2%	3.5	2.6%	0.3	-2.2%
O=C1CCC(C(=O)N2CCN(c3ccccc3Cl)CC2)CN1CC1CCCCC1 (stereo not given)	-12	-16	-3%	0.4	-0.6%	-1.1	-1.4%
Cc1ccc(S(=O)(=O)NCCC(=O)N2CCN(c3cccc(Cl)c3)CC2)cc1C	7	5	14%	5.6	-1.5%	2.6	-0.5%
CC(C(=O)Nc1ccc2c(c1)OCO2)N1CCC(N2CCCCC2)CC1 (stereo not given)	-5	9	x	x	1.1%	-1.0	-1.9%
COC(=O)c1oc2ccccc2c1-n1cccc1	10	-4	-7%	0.0	0.5%	1.0	0.9%
O=C(NCc1ccccc1)C(=O)NCC1OCCN1S(=O)(=O)c1ccc([N+](=O)[O-])cc1 (stereo not given)	4	5	5%	0.2	12%	-0.2	-0.2%
Cc1ccc(NC(=S)N(Cc2cccs2)Cc2cc3cc(C)ccc3[nH]c2=O)cc1	0	17	3%	0.8	6.3%	-0.2	-3.9%
COc1ccc(CN2CCNC(=O)C2CC(=O)NCc2cn[nH]c2-c2ccccc2)c(F)c1 (stereo not given)	-38	4	15%	x	-0.5%	-0.7	-1.4%
CN(C)c1nc(N)nc(Cn2nnc(-c3ccc(C(F)(F)F)cc3)n2)n1	-4	-2	-13%	-2.5	6.6%	-0.7	x
CCc1ccc(OCC(=O)Nc2ccc3[nH]ncc3c2)cc1	2	1	11%	4.3	-0.5%	-1.7	-1.9%
Oc1ccccc1C=NC(c1ccccc1)C(O)c1ccccc1 (stereo not given)	7	-15	-5%	x	u	0.7	-1.9%
CN1CCN(C(=O)/C(=C\c2ccc3c(c2)OCO3)NC(=O)c2cccs2)CC1	-6	-3	20%	-8.2	1.5%	0.8	x
CN(C)c1ncc(S(=O)(=O)c2ccccc2)c(=O)[nH]1	-4	60	9%	0.4	-0.2%	1.7	-8.1%
O=C(NCCNC(=O)c1cc(OCC(F)(F)F)ccc1OCC(F)(F)F)Nc1ccc(OC(F)(F)F)cc1	13	26	9%	7.3	16%	0.2	0.1%
Oc1c(CN2CCc3ccccc3C2)cc(Cl)c2cccnc12	6	-2	-22%	-3.6	2.1%	-0.6	-2.5%
Cc1cc(C)cc(NC(=O)CCN2C(=O)c3ccccc3S2(=O)=O)c1	-7	34	6%	4.0	0.5%	-0.1	-0.6%
CCCNC(=O)c1ccc(CN2CCc3ccccc3C2)cc1	1	-8	10%	-0.5	-1.6%	-0.1	-2.0%
COCCNC(=S)Nc1ccc2nc(N3CCOCC3)cc(C)c2c1	-7	x	9%	4.7	-0.2%	x	3.8%
CCc1cnc2c(c1SC(C(C)=O)C(=O)N(C)C)c(=O)n(C)c(=O)n2C (stereo not given)	x	30	x	x	1.2%	-0.6	0.9%
COc1ccc(CC(=O)c2ccc(OC3OC(CO)C(O)C(O)C3O)cc2O)cc1 (stereo not given)	-6	x	14%	3.2	0.1%	x	1.4%
Continuation.
SMILES	TRPV1 potentiator	TRPML1 inh	Sfp PPTase inh	Menin-MLL FL inh	PINK1 expr mod	TRPML1 ag	ClpP mod
CN(Cc1nc(-c2ccccc2)no1)C(=O)c1ccc2c(c1)OCO2	-8	9	x	x	-0.2%	0.2	-3.4%
CS(=O)(=O)N1CCC2(CCCN(Cc3cc(C(F)(F)F)cc(C(F)(F)F)c3)C2)CC1	x	x	10%	u	2.2%	x	x
Cc1ccc(-c2cn3c(n2)sc2cc(C(=O)NC4CCCc5ccccc54)ccc23)cc1 (stereo not given)	x	3	x	x	2.6%	1.3	u
COc1ccc(-c2nnc(SCC(=O)Nc3cccc(C(F)(F)F)c3)nc2-c2ccc(OC)cc2)cc1	x	-1	x	x	-0.7%	1.9	-2.2%
CC1(c2ccc(Cl)cc2Cl)OCC(Cn2ccnc2)O1 (stereo not given)	-5	4	-23%	-2.3	-0.3%	-0.8	1.7%
O=C(CCNS(=O)(=O)c1cccs1)N1CCN(c2cccc(Cl)c2)CC1	-2	-10	-5%	1.0	-0.4%	-0.4	x
F[B-](F)(F)c1cc2ccccc2s1	x	-14	x	x	4.4%	2.5	1.8%
COc1ccc(N2CC(C(=O)OC(C)C(=O)c3ccccc3)CC2=O)cc1 (stereo not given)	0	10	14%	-1.8	2.1%	-0.5	0.9%

Arranged by heavy-atom count (smallest number first): 3 of the compounds above
SMILES	TRPV1 potentiator	TRPML1 inh	Sfp PPTase inh	Menin-MLL FL inh	PINK1 expr mod	TRPML1 ag	ClpP mod
CC1(c2ccc(Cl)cc2Cl)OCC(Cn2ccnc2)O1 (stereo not given)	-5	4	-23%	-2.3	-0.3%	-0.8	1.7%
CN(Cc1nc(-c2ccccc2)no1)C(=O)c1ccc2c(c1)OCO2	-8	9	x	x	-0.2%	0.2	-3.4%
Cc1ccc(-c2cn3c(n2)sc2cc(C(=O)NC4CCCc5ccccc54)ccc23)cc1 (stereo not given)	x	3	x	x	2.6%	1.3	u
